Screens (PubChem)
KCNQ2 block: KCNQ2 channel blockers in CHO-K1 cells – cell-based, FluxOR thallium flux, B-score, primary screen (AID 2156); 20 min; stronger effect = lower value; only compounds with negative scores are shown here; some inactives read as strong as hits; B-score at 10 µM; O88943; 310,000 tested, 1.1% active;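 active means fluorescence ratio B-score at most minus 3 library SDs, with starting brightness B-score within 2 library SDs, cut at about -5.5 in these data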
Target sequence (O88943 whole entry, looked up): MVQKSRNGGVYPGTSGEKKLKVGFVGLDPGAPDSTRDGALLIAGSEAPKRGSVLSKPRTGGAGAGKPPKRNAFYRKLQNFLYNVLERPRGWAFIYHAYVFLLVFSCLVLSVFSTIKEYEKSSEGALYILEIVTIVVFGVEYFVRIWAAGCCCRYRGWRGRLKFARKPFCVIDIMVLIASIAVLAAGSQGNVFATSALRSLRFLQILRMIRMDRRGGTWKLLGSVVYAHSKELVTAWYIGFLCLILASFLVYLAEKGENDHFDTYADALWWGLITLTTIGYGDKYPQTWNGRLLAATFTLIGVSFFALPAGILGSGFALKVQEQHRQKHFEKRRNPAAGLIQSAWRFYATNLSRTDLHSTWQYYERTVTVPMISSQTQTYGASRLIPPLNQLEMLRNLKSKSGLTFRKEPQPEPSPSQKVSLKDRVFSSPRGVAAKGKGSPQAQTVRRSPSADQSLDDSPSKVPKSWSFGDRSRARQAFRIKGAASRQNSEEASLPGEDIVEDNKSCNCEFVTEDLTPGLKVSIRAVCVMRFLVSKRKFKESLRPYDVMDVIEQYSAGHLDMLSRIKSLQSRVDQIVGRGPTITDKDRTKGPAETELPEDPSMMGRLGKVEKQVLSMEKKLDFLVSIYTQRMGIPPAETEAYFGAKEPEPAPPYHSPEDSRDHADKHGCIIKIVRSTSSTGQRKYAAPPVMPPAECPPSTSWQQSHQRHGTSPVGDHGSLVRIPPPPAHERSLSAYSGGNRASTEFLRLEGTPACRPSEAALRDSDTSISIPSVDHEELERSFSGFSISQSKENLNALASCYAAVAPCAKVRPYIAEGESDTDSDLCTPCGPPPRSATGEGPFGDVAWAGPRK
KCNQ2 block baseline: second read-out of KCNQ2 block, no call of its own (marks repeat the call); B-score; measured here: initial fluorescence intensity artifact check;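 brightness before thallium and not channel activity; 0 = typical well and far values either way flag optical interference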
Active calls of the source: *; i = inactive. Not all compounds are listed, so the mix of outcomes need not match the whole.

smiles	KCNQ2 block	KCNQ2 block baseline
O=P(O)(O)c1cc(-c2ccccc2)oc1-c1ccccc1	i	-1
CCN(CC)c1ccc(C(=O)OCC(=O)N(C)Cc2ccccc2)cc1	i	0.28
COc1ccc(CNC(=O)COc2ccc(OC)cc2)cc1	i	-1.5
COc1cc(/C=N/Nc2ccc([N+](=O)[O-])cn2)cc(OC)c1O	i	0.76
Cc1ccc(C(=O)NCC(C)NC(=O)c2ccc(C)c([N+](=O)[O-])c2)cc1[N+](=O)[O-] (configuration not stated)	i	-0.26
Cc1ccccc1NCC(=O)c1ccc(Br)cc1	i	0.32
Cc1cc(C)c(C)c(OCc2nc(-c3cccnc3)no2)c1	i	-0.78
COC(=O)C1=C(C)NC(=O)NC1c1cccc(OC)c1OCc1ccccc1 (configuration not stated)	i	-1.7

By substructure, the entries above containing a carbonyl joined to an NH by a bond outside any ring.
smiles	KCNQ2 block	KCNQ2 block baseline
COc1ccc(CNC(=O)COc2ccc(OC)cc2)cc1	i	-1.5
Cc1ccc(C(=O)NCC(C)NC(=O)c2ccc(C)c([N+](=O)[O-])c2)cc1[N+](=O)[O-] (configuration not stated)	i	-0.26

(more compounds)
smiles	KCNQ2 block	KCNQ2 block baseline
O=C(NC1CCCCCC1)c1cc2n(n1)C(C(F)(F)F)CC(c1ccco1)N2 (configuration not stated)	i	0.44
COc1ccc(C)cc1NC(=O)c1ccccc1NS(=O)(=O)c1ccc(Cl)s1	i	0.39
COC(=O)c1ccc(NC(=O)C(C)Oc2ccccc2)cc1 (configuration not stated)	i	-1.3
S=c1[nH]ncn1NCc1cccc(Br)c1	i	-0.48
CCOC(=O)c1c(CC(C)C)csc1NC(=O)COC(=O)c1cc(OC)c(OC)cc1[N+](=O)[O-]	i	-0.51
CC(C)Oc1cccc(-c2cc(C(=O)NC(=S)N(C)c3ccccc3C(=O)O)c3ccccc3n2)c1	i	-0.09
O=c1cc(CSc2nnc(COc3ccccc3)n2-c2ccccc2)c2ccccc2[nH]1	i	0.17
Cc1sc2ncn(CC(=O)NCc3ccccc3)c(=O)c2c1C	i	0.5
Cc1sc2c(c1C)c(=O)nc1scc(CC(=O)O)n12	i	-1.1
CN(C)C(CNC(=O)CNC(=O)c1ccc(Br)cc1)c1ccccc1 (configuration not stated)	i	-0.1
CCOc1cc(C)nc(N2CCN(C3CCCCC3)CC2)n1	i	1.6
COc1ccccc1CN(C)C(=O)c1sccc1-c1ccccc1	-6.5*	-0.75*
O=c1c2[nH]c3ccc(F)cc3c2ncn1CCN1CCN(Cc2ccccc2)CC1	i	0.46
Cc1cc(NC(=O)/C=C/c2ccc(F)cc2)n(-c2nc3ccccc3[nH]2)n1	i	1.8
O=C(NNC(=S)NCc1ccc(Cl)cc1)c1ccc(Br)o1	i	0.64
CCOC(=O)C1=C(CCc2ccccc2)NC(=O)NC1c1ccc(C#N)cc1 (configuration not stated)	i	-1.1
COc1cccc(OC)c1C(=O)N1CCN(Cc2ccccc2C)CC1	i	0.16
Cc1c([N+](=O)[O-])cc(C(=O)N2CCOCC2)cc1[N+](=O)[O-]	i	-1.8
COc1ccc(-n2c(O)c(C=NC3CC3)c(=O)[nH]c2=O)cc1	i	-0.39
O=C(Nc1ccc(F)cc1F)NC1CCN(Cc2c(F)cccc2Cl)CC1	i	0.02
c1ccc(CSC2=NCCS2)cc1	i	-0.43
CC1C(=O)N2CCCc3cc(NS(C)(=O)=O)cc1c32 (configuration not stated)	i	-0.15
CC(C)COc1ccc(-c2nn(-c3ccccc3)cc2CO)cc1	i	-2.8
N#CC1=C(N)Oc2n[nH]c(-c3cccs3)c2C1c1cccnc1 (configuration not stated)	i	0.44
CCNS(=O)(=O)c1ccc(CCC(=O)NCc2ccccc2)cc1	i	-0.52
CN(C)c1ccc(/C=N/N2CCN(c3ccccn3)CC2)cc1	i	-0.79
COc1cc(O)oc1C=Nc1ccccc1	i	-0.83
Cc1cc(C(=O)COC(=O)c2ccc(N)c([N+](=O)[O-])c2)c(C)n1Cc1ccc2c(c1)OCO2	i	-0.33
CCCn1c(NC(=O)c2cccc(C)c2C)nc2ccccc21	i	-0.15
COC(=O)C1=C(C)N(Cc2ccc(OC)cc2)C(=O)/C1=C\c1ccco1	i	0.1
CCOC(=O)CC/C(=N\NC(N)=O)c1ccc(OC)c(Cl)c1	i	-0.64
CSCCC(NS(=O)(=O)c1ccc(Cl)cc1)C(=O)OCC(=O)N1CCCc2ccccc21 (configuration not stated)	i	-0.36
CCOc1ccc(C(F)(F)F)cc1NC(=O)COc1ccc(C(F)(F)F)cc1[N+](=O)[O-]	i	0.54
O=C(NCc1cccnc1)c1ccc(Cl)c(S(=O)(=O)N2CCOCC2)c1	i	-1.1
Cc1cc(=O)oc2cc(OCC(=O)Nc3ccccc3C(=O)O)ccc12	i	-0.68
COc1cc(-c2nnc3n2N=C(c2ccccc2)CS3)cc(OC)c1OC	i	-0.79
Cc1nc(N2CCN(Cc3ccccc3)CC2)nc2c1C(=O)CC(C)C2 (configuration not stated)	i	-1.1
O=C(CC(c1ccccc1)c1ccccc1)Nc1nn[nH]n1	i	2
Cc1ccc(N(CCO)C(=S)Nc2ccccc2)cc1	i	-1.8
Clc1ccc2nc(-c3ccncc3)cc(-c3ccccc3)c2c1	i	-1.5
COc1cccc(N2C(=O)CN(Cc3cc(OC)c(OC)c(OC)c3)C2=S)c1	i	0.39
CCc1ccc(OCC(=O)OCC(=O)NCCNC(=O)COC(=O)COc2ccc(CC)cc2)cc1	i	-0.17
O=C(COC(=O)c1cccnc1Nc1cccc(C(F)(F)F)c1)NCCN1C(=O)CSC1=O	i	0.01
S=C(NCCc1ccc(Cl)cc1)NC1CCCCC1	i	0.98
Nn1c(SCc2nc3ccccc3[nH]2)nnc1C1CCCCC1	i	1
CN1CCN(NC(=S)Nc2ccc(OC(F)F)cc2)CC1	i	0.05
CCCCOC(=O)Cn1c(=N)n(CCN2CCOCC2)c2ccccc21	i	-0.58
CC1CCCCN1C(=S)Nc1ccc(OC(F)F)cc1 (configuration not stated)	i	2.9
CC(C)(C)NC(=O)CN(C(=O)c1ccc(Cl)nc1)c1cccc2ccccc12	i	1.1
c1csc(-c2nc(NCC3CCCO3)c3ccccc3n2)c1 (configuration not stated)	i	-0.45
COc1ccc(CN(C)C(=O)CNC(=O)c2ccc3ccccc3c2)c(OC)c1	i	-0.13
CCOC(=O)CN(C(=O)COC(=O)C1(c2ccccc2)CC1)c1ccc(F)cc1	i	3.6
CCN1CCN(CCNC(=O)CCCn2nc(C)c3c(C)n(-c4ccc(C)cc4)nc3c2=O)CC1	i	0.47
OC(CN1CCC(Cc2ccccc2)CC1)c1ccccc1 (configuration not stated)	i	0.18
COc1ccc(OC)c(-c2csc(NC(=O)C3COc4ccccc4O3)n2)c1 (configuration not stated)	i	2.6
CN(Cc1nc2ccccc2n1C)S(=O)(=O)c1ccc(Cl)cc1	i	-1.3

Look-ups from above.
KCNQ2 block baseline result of `CC(C)(C)NC(=O)CN(C(=O)c1ccc(Cl)nc1)c1cccc2ccccc12` stands at 1.1
KCNQ2 block baseline result of `CN(Cc1nc2ccccc2n1C)S(=O)(=O)c1ccc(Cl)cc1` stands at -1.3
KCNQ2 block baseline result of `OC(CN1CCC(Cc2ccccc2)CC1)c1ccccc1` (configuration not stated) stands at 0.18
KCNQ2 block baseline result of `CCN1CCN(CCNC(=O)CCCn2nc(C)c3c(C)n(-c4ccc(C)cc4)nc3c2=O)CC1` stands at 0.47
KCNQ2 block baseline result of `c1csc(-c2nc(NCC3CCCO3)c3ccccc3n2)c1` (configuration not stated) stands at -0.45

The list goes on:
smiles	KCNQ2 block	KCNQ2 block baseline
CCCCNC(=O)CC1N=C2c3ccccc3N=C(SCC(=O)Nc3ccccc3C)N2C1=O (configuration not stated)	i	0.1
O=[N+]([O-])c1cc(-c2nc(-c3ccncc3)no2)ccc1Cl	i	0.02
CCCSc1nc2c(cnn2-c2ccccc2)c(=O)[nH]1	i	-0.92
COc1cc(/C=N/Nc2cccc(C)c2)ccc1OC(=O)c1ccco1	i	0.01
CC1(c2nnc(-c3ccc(F)cc3)o2)CC(c2cccc(Cl)c2)=NO1 (configuration not stated)	i	-1.6
CCC(C)(C)NC(=O)CN(C(=O)CCC(=O)Nc1nccs1)c1ccc2c(c1)OCO2	i	1.8
CCOc1ccc(OCC)c(NC(=O)CN2CCN(C(=O)c3ccco3)CC2)c1	i	1.1
CC1CCCN(C(=O)c2ccc([N+](=O)[O-])o2)C1 (configuration not stated)	i	1
COc1cc(/C=N/n2cnc3scc(-c4cccs4)c3c2=O)cc(OC)c1OC	i	-0.14
Cc1ccc(/C=N/N2CCN(Cc3ccc(C)cc3)CC2)cc1	i	1.3
CCc1ccc(NC(=O)NNC(=O)c2ccc3ccccc3c2O)cc1	i	-0.01
C[N+](C)(CC#Cc1ccccc1)CC(=O)c1ccc(Cl)cc1	i	-2.5
COc1ccc(OC)c2[nH]c(=O)c(CCNC(=O)C(C)(C)C)cc12	i	-0.35
Cc1ccc(S(=O)(=O)N/N=C/c2ccc(OCC(=O)N3CCOCC3)cc2)cc1	i	-0.83
COc1ccc(S(=O)(=O)NCC(=O)NCc2cc(=O)n(C)c(=O)n2C)cc1	i	-0.04
COc1ccccc1N1CCN(C(=O)c2ccc(CN3CCOCC3)cc2)CC1	i	-3.8
Cc1c(NC(=O)c2ncn[nH]2)cccc1-c1nc2ccccc2s1	i	2.5
CCc1nnc2sc(-c3ccc(NC(=O)c4ccco4)cc3)nn12	i	0.1
CC(C)c1nnc(NC(=O)CCN2C(=O)c3ccccc3C2=O)s1	i	1.5
CCOC(=O)c1ccc(NS(=O)(=O)c2c(C)nc3sccn3c2=O)cc1	i	-0.02
CCOc1ccc(CN(Cc2ccco2)C(c2cccs2)c2nnnn2C(C)(C)C)cc1 (configuration not stated)	-6.3*	0.04*
CN(CC(=O)Nc1ccccc1Cl)C(=O)COC(=O)C1=COCCO1	i	-1.5
Oc1ccc(-n2nnnc2SCc2c(F)cccc2Cl)cc1	i	1.1
CN(C)c1ccc(-n2cc3c(=O)n(C)c(=O)n(C)c3c2)cc1	i	-0.48
O=C1C=CC(=O)N1c1ccc(O)cc1	i	0.61
Cc1ccccc1NC(=O)c1ccc(C)c(S(=O)(=O)Nc2cccnc2)c1	i	1.2
Cc1ccccc1N(C)S(=O)(=O)c1nnc(NC(=O)c2ccccc2F)s1	i	-1.8
O=[N+]([O-])c1cccc(-c2ccc(C(=S)N3CCN(c4ccc(F)cc4)CC3)o2)c1	i	0.41
COc1cccc(C2c3[nH]c4ccccc4c3C[C@H]3C(=O)N(c4ccccc4C(=O)NCCCN4CCOCC4)C(=O)N23)c1 (some centres not stated)	i	0.15
CCC1(c2ccc(F)cc2)NC(=O)N(CC(=O)N(CCC#N)c2ccccc2)C1=O (configuration not stated)	i	-2.6
Cc1ccc(C)c(NC(=S)N/N=C2/CCCCc3ccccc32)c1	i	0.02
COc1ccc(N(CC(=O)NCc2ccccc2C)S(=O)(=O)c2ccccc2[N+](=O)[O-])c(OC)c1	i	0.34
COc1ccc(OC)c(C2CC(=O)NC(SC)=C2C#N)c1 (configuration not stated)	i	-1.3
CCc1ccc(S(=O)(=O)/N=C2\C=C(NS(=O)(=O)c3ccccc3)C(=O)c3ccccc32)cc1	i	-2
Cc1c(Br)c([N+](=O)[O-])nn1C(C)C(=O)Nc1ccc2c(c1)OCO2 (configuration not stated)	i	2.5
Oc1ccccc1N1CCN(Cc2ncc(-c3ccccc3)o2)CC1	i	1.5
Cc1cc(F)ccc1Oc1cc(NN2CCCCC2)c([N+](=O)[O-])cc1[N+](=O)[O-]	i	0.13
Cc1cc(C)c(S(=O)(=O)N2CCCCC2)c(C)c1N(C)S(=O)(=O)c1ccc(Cl)cc1	i	0.16
Cc1c(C2(c3c(C)n(C)n(-c4ccccc4)c3=O)C(=O)Nc3ccc(F)cc32)c(=O)n(-c2ccccc2)n1C	i	0.95
CCCN(CC1CC1)C(=O)CCc1nnc(CCc2c[nH]c3ccccc23)o1	i	2.2
CCC(=O)Nc1ccc(S(=O)(=O)N2CCN(c3ccc(F)cc3)CC2)cc1	i	0.04
Cc1cccc(NC(=O)CN2CCc3cc4c(cc3C2C)OCCCO4)c1 (configuration not stated)	i	1.1
N#CC1=CN(Cc2ccccc2)C=C(/C=N/Nc2ccccc2)C1	i	2.7
CCOC(=O)N1C2=NC(C(=O)OC)=C(C(=O)OC)[C@@H]3Nc4ccccc4[C@]23C[C@H]1C(=O)OC	i	0.55
COc1ccc(-c2cc(C(=O)N(C)CC(=O)Nc3cccc(F)c3)c3ccccc3n2)cc1	i	-0.3
COC(=O)NNC1=CC(=O)CC(C)(C)C1	i	0.28
COc1cc(/C=N/NC(=S)NC2CC3CC2C2C=CCC32)ccc1O (configuration not stated)	i	-0.78
COc1ccccc1NC1C=CS(=O)(=O)C1 (configuration not stated)	i	-0.5
Cc1ccccc1NC(=O)Cn1c(C)nc2ccc(NC(=O)C3CC3)cc2c1=O	i	0.04
Cc1ccc(NC(=O)Cn2nnc(C(=O)NCCc3ccccc3)c2N)c(C)c1	i	-0.24
CN(CC(=O)Nc1cccc(F)c1)C(=O)CCC1CCCCC1	i	-0.38
CCCC1CC(C)(/C(C)=N\NC(N)=S)OC1=O (configuration not stated)	i	-0.58
COc1ccc(-n2cnnc2SCC(=O)NC2CCS(=O)(=O)C2)cc1 (configuration not stated)	i	0.1
